Source: PubChem BioAssay
AID504770: growth inhibitors of E. coli YBA685 in a screen for V. cholerae RctB (chromosome II replication) inhibitors | E. coli YBA685 rctB-dependent plasmid, OD600 growth, 3 h; hits give low values | hit rate 0.27% among 130,000 | AID 504770 | z-score (no concentration beside the values);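 active means z-score under -2 on both plates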;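 further: wells of about 30 µL received 100 nL stock; score is relative to mean and SD of the test wells; the first replicate is given; strong numbers were not always called active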
Ba CapD inh: inhibitors of Bacillus anthracis CapD enzyme | hit rate 0.23% among 140,000 | z-score (no concentration beside the values) | purified CapD enzyme, fluorescence intensity read-out; hits give low values; some hits fall short of the stated cut;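 active means z-score under -4 in either of two replicates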;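 further: stock transfer was 100 nL into about 40 µL; score is relative to mean and spread of the plate; one replicate is shown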
Active calls of the source: *. This is a subset; rates above refer to the full screens.

`c1ccc(CN2CCc3nc4ccccc4cc3C2)cc1` gave AID504770 -0.25 and Ba CapD inh -0.105.
Screening CCOC(=O)C1=C(C)N=c2s/c(=C3\C(=O)N(C(C)=O)c4ccccc43)c(=O)n2C1c1ccc(OC)c(OC)c1 (stereo not drawn) returned Ba CapD inh -0.295.
Cc1cc(C)c(S(C)(=O)=O)c(S(=O)(=O)c2ccc(Cl)cc2)n1 was read as Ba CapD inh -0.09.
Screening Cc1cccc(OCCn2cnc3c(cnn3C)c2=O)c1 returned AID504770 0.3.
COC(=O)C(NS(=O)(=O)c1ccc(N2CCCC2=O)cc1)c1ccccc1 (stereo not drawn) was read as AID504770 -0.2 and Ba CapD inh 0.27.
Screening COC(=O)C1=C(C(=O)c2ccccc2)C(c2ccccc2)n2ncnc2N1 (stereo not drawn) returned AID504770 1.75 and Ba CapD inh 0.795.
O=C(COC(=O)COc1ccccc1F)NC1CC1 was read as AID504770 -0.8 and Ba CapD inh -0.945.
Screening COc1ccc(OC)c(NC(=O)CCc2c(C)nc3c(c(C)nn3C)c2C)c1 returned AID504770 0.35 and Ba CapD inh 0.425.
CCCc1nc2ccccc2c(=O)n1-c1ccccc1 was read as AID504770 0.9.
Screening CCCn1cnc2c(N)c(C)c(C)cc21 returned AID504770 -1.25 and Ba CapD inh 0.465.
For CCC(Sc1nc(Nc2cc(OC)cc(OC)c2)c2ccccc2n1)C(=O)NCCCOC (stereo not drawn) the results were Ba CapD inh 0.745.
For CCOC(=O)c1cnc2cc(Cl)c(F)cc2c1OCC the results were AID504770 1.25 and Ba CapD inh -0.23.
Screening O=C(Nc1ccncc1)c1nn2c(C(F)(F)F)cc(-c3cccs3)nc2c1Br returned Ba CapD inh 0.1.
`COC(=O)C(Cc1c[nH]c2ccccc12)NC(=O)c1cccc([N+](=O)[O-])c1` (stereo not drawn) gave Ba CapD inh -0.11.
Screening Nc1nc2n[nH]nc2c(=O)[nH]1 returned Ba CapD inh 1.47.
`O=C(O)CCc1cc(Cl)no1` gave AID504770 -0.1 and Ba CapD inh 0.465.
For CC(C)NC(=O)C1CN(S(=O)(=O)c2ccccc2)CCN1S(=O)(=O)c1ccccc1 (stereo not drawn) the results were AID504770 1.2 and Ba CapD inh -0.13.
Screening O=C1C2=C(C(c3ccccc3)=NCCN2)C(c2ccccc2Cl)N1c1ccccc1 (stereo not drawn) returned Ba CapD inh -0.365.
Screening N=Nc1c(O)n(CC(=O)Nc2ccccc2)c2ccccc12 returned AID504770 -0.5.
CCC(=O)N(c1nnc(SCC(=O)NCC(F)(F)F)s1)C1CC1 was read as AID504770 0.65.
COc1ccccc1NC(=O)CSc1nc2ccc(NC(=O)CSc3ccccn3)cc2s1 was read as Ba CapD inh -0.215.
`CC1(C)CC(NC(=O)CCc2ccccc2)CC(C)(C)N1` gave AID504770 0.7.
CC1(c2ccccc2)CC(c2ccccc2)=C(C#N)C(=O)N1 (stereo not drawn) was read as AID504770 -0.55 and Ba CapD inh 1.02.
CN(C(=O)Cn1nc(Cc2ccncc2)c2ccccc2c1=O)c1ccccc1F was read as AID504770 0.8 and Ba CapD inh 0.45.
Screening CC(=O)c1ccccc1NS(=O)(=O)c1ccc(Br)cc1 returned Ba CapD inh 0.
Screening COc1cccc(C2C3=C(NCCN=C3c3ccccc3)C(=O)N2c2ccccc2)c1 (stereo not drawn) returned Ba CapD inh -0.38.
For Cc1cc2nnc(SCC(=O)O)n2c2ccccc12 the results were AID504770 0.35 and Ba CapD inh 7.11.
For COCCOC(=O)C1=C(C)NC2=C(C(=O)CC(c3ccc(OC)c(OC)c3)C2)C1c1cccc(Cl)c1Cl (stereo not drawn) the results were Ba CapD inh 28.5.
For CN(C)c1ccc(/C=C/C=C/c2cc[n+](C)cc2)cc1 the results were AID504770 1.25 and Ba CapD inh -0.325.
Screening CC(=O)c1ccc(C(=O)Nc2ccccc2-c2nc3ccccc3[nH]2)cc1 returned Ba CapD inh 3.31.
`CC1CC(C)CN(S(=O)(=O)c2ccc(C(=O)NCc3ccccn3)cc2)C1` (stereo not drawn) gave AID504770 1.15.
CCOC(=O)c1ccc(N2C(=O)C3Sc4[nH]c(=O)sc4C4(CCCCC4)C3C2=O)cc1 (stereo not drawn) was read as AID504770 0.05.
For CC(C)CSc1nc2c(cnn2-c2ccccc2)c(=O)[nH]1 the results were AID504770 -0.9 and Ba CapD inh 0.625.
For C#Cc1cccc(N2C(=O)CC(CC=C)C2=O)c1 (stereo not drawn) the results were AID504770 -0.5 and Ba CapD inh 0.715.
Screening O=C(CCC(=O)c1ccc(Cl)cc1)OC1CCCCC1=O (stereo not drawn) returned AID504770 -0.1.
`CCN(Cc1ccccc1)C(c1ccccn1)c1nnnn1C1CCCCC1` (stereo not drawn) gave AID504770 0.45.

No new results follow: entries from further up.
Screening O=C1C2=C(C(c3ccccc3)=NCCN2)C(c2ccccc2Cl)N1c1ccccc1 (stereo not drawn) returned Ba CapD inh -0.365.
Screening N=Nc1c(O)n(CC(=O)Nc2ccccc2)c2ccccc12 returned AID504770 -0.5.
CCC(=O)N(c1nnc(SCC(=O)NCC(F)(F)F)s1)C1CC1 was read as AID504770 0.65.
COc1ccccc1NC(=O)CSc1nc2ccc(NC(=O)CSc3ccccn3)cc2s1 was read as Ba CapD inh -0.215.
`CC1(C)CC(NC(=O)CCc2ccccc2)CC(C)(C)N1` gave AID504770 0.7.
CC1(c2ccccc2)CC(c2ccccc2)=C(C#N)C(=O)N1 (stereo not drawn) was read as AID504770 -0.55 and Ba CapD inh 1.02.
CN(C(=O)Cn1nc(Cc2ccncc2)c2ccccc2c1=O)c1ccccc1F was read as AID504770 0.8 and Ba CapD inh 0.45.
Screening CC(=O)c1ccccc1NS(=O)(=O)c1ccc(Br)cc1 returned Ba CapD inh 0.
Screening COc1cccc(C2C3=C(NCCN=C3c3ccccc3)C(=O)N2c2ccccc2)c1 (stereo not drawn) returned Ba CapD inh -0.38.
For Cc1cc2nnc(SCC(=O)O)n2c2ccccc12 the results were AID504770 0.35 and Ba CapD inh 7.11.
For COCCOC(=O)C1=C(C)NC2=C(C(=O)CC(c3ccc(OC)c(OC)c3)C2)C1c1cccc(Cl)c1Cl (stereo not drawn) the results were Ba CapD inh 28.5.
For CN(C)c1ccc(/C=C/C=C/c2cc[n+](C)cc2)cc1 the results were AID504770 1.25 and Ba CapD inh -0.325.
Screening CC(=O)c1ccc(C(=O)Nc2ccccc2-c2nc3ccccc3[nH]2)cc1 returned Ba CapD inh 3.31.
`CC1CC(C)CN(S(=O)(=O)c2ccc(C(=O)NCc3ccccn3)cc2)C1` (stereo not drawn) gave AID504770 1.15.
CCOC(=O)c1ccc(N2C(=O)C3Sc4[nH]c(=O)sc4C4(CCCCC4)C3C2=O)cc1 (stereo not drawn) was read as AID504770 0.05.
For CC(C)CSc1nc2c(cnn2-c2ccccc2)c(=O)[nH]1 the results were AID504770 -0.9 and Ba CapD inh 0.625.

Further compounds
`CCCOC(=O)C1=C(C)NC2=C(C(=O)C(C(=O)OC)C(C)C2)C1c1ccc(F)c(Br)c1` (stereo not drawn) gave AID504770 0.3 and Ba CapD inh 60.6.
For O=C1c2ccccc2NC(c2cccs2)N1c1ccc2c(c1)OCO2 (stereo not drawn) the results were AID504770 -0.65.
For COc1cc2c(O)c3c(c(-c4ccc5c(c4)OCO5)c2cc1OC)C(=O)OC3 the results were AID504770 -0.65 and Ba CapD inh 35.9.
`Cn1nc(C(=O)OCc2nnc(-c3ccccc3)o2)c2ccccc2c1=O` gave AID504770 1.65.
`CC1CCN(C(=O)/C=C/c2c(F)cccc2Cl)CC1` gave AID504770 -0.7 and Ba CapD inh -0.03.
CCc1cccc(C)c1N(C(C)=O)C1=NCCC(=O)S1 was read as AID504770 0.65 and Ba CapD inh 0.02.
For CCOC(=O)Cc1csc(CS(=O)(=O)c2ccc(Cl)cc2)n1 the results were AID504770 -0.1 and Ba CapD inh -0.325.
`CCOC1CSc2sc(=S)sc2S1` (stereo not drawn) gave AID504770 -0.05.
Screening CN1C2CCC1CC(NC(=O)CSc1ccccc1)C2 (stereo not drawn) returned AID504770 0.7 and Ba CapD inh 0.3.
`CS(=O)(=O)c1cnc(-c2cccnc2)nc1-c1ccc(C(F)(F)F)cc1` gave Ba CapD inh -0.105.
Cc1sc2c(c1C)-c1nc(SCC(=O)C(C)(C)C)ncc1S(=O)(=O)N2C was read as AID504770 -0.6 and Ba CapD inh 0.555.
`C=CCn1cc(/C=c2\sc3n(c2=O)C(c2ccc(OC)c(OC)c2)C(C(=O)OCC)=C(C)N=3)c2ccccc21` (stereo not drawn) gave Ba CapD inh 0.205.
CCCN(CC(=O)Nc1ccccc1C)C(=O)CSc1nnc2ccccn12 was read as AID504770 -0.5.
For O=C1CCCC2=C1C(c1ccccc1F)n1ncnc1N2 (stereo not drawn) the results were AID504770 0.2 and Ba CapD inh 1.08.
For CCC1CCc2nc3sc(C(=O)Nc4cc(Cl)ccc4OC)c(N)c3cc2C1 (stereo not drawn) the results were AID504770 -0.1 and Ba CapD inh -1.53.
Cc1ccc(/C=C2/C(=O)/C(=C/c3ccc(C)o3)C3CCC2N3C)o1 was read as AID504770 -1.65 and Ba CapD inh -2.86.
Oc1ccc(CNc2ccccc2C(F)(F)F)c2cccnc12 was read as AID504770 2.7.
`O=C1C(=O)N(CCCn2ccnc2)C(c2cccc(Br)c2)/C1=C(\O)c1ccccc1` (stereo not drawn) gave AID504770 -0.85 and Ba CapD inh -0.715.
`CCN1C(=O)c2ccccc2S(=O)c2ccc(C(=O)N(C)C3CCCCC3)cc21` (stereo not drawn) gave AID504770 -1.55 and Ba CapD inh -0.18.
`Cc1ccc(S(=O)(=O)NNc2nc3ccccc3nc2C(F)(F)F)cc1` gave Ba CapD inh -0.025.
For CCC(=O)N1c2ccccc2C2=C(SC(C(=O)OC)=C(C(=O)OC)C23SC(C(=O)OC)=C(C(=O)OC)S3)C1(C)C the results were Ba CapD inh -0.345.
`Cc1[nH]c2ccccc2c(=O)c1Cc1c(C)[nH]c2ccccc2c1=O` gave AID504770 -1.25 and Ba CapD inh -0.96.
NC(=O)Cc1ccc(NC(=O)CCC(=O)O)cc1 was read as AID504770 0.35 and Ba CapD inh 0.015.
Screening COCC(C)n1c(C)cc(C(=O)COC(=O)c2ccc3ncsc3c2)c1C (stereo not drawn) returned AID504770 -0.45.
COc1nc(Sc2ccc(NC(=O)c3ccc(C(C)(C)C)cc3)cc2)nc2c1CCO2 was read as Ba CapD inh 0.02.
For CC1(C)CC(=O)C(/C=N/n2cnc3ccccc3c2=O)=C(O)C1 the results were AID504770 -0.3 and Ba CapD inh -0.325.
Screening COc1cc(OC)c(OC)cc1/C=C1\N=C(c2cncc(Br)c2)OC1=O returned Ba CapD inh 1.15.
For Cn1c(=O)c2nc(SCC(=O)O)n(Cc3ccc(Cl)cc3Cl)c2n(C)c1=O the results were Ba CapD inh -0.31.
For Cn1c(=O)c2c(ncn2CCCNC2=CC(=O)CC(C)(C)C2)n(C)c1=O the results were AID504770 -0.4 and Ba CapD inh -0.44.
`N#Cc1cc(C(=O)c2ccccc2O)cn(-c2ccccn2)c1=O` gave AID504770 -0.65.
S=C(NC1CCCCC1)NN1CCOCC1 was read as AID504770 0 and Ba CapD inh 0.47.
For CS(=O)(=O)N1CCN(c2ccccc2NC(=O)c2ccc(Cl)cc2)CC1 the results were Ba CapD inh 0.19.
CC(C)C(=O)N(Cc1cc2ccccc2[nH]c1=O)CC1CCCO1 (stereo not drawn) was read as AID504770 0.15.
For COc1ccc(-c2ccc(/C=N/NC(N)=O)o2)cc1 the results were AID504770 1.65.
For Cc1n[nH]c(=S)n(/N=C/c2ccccc2)c1=O the results were AID504770 1.2 and Ba CapD inh 7.02.
`Cn1cncc1C(O)c1ccccc1` (stereo not drawn) gave AID504770 1.2 and Ba CapD inh 0.07.
For Cn1nc(C(=O)NCCSc2n[nH]c(=O)[nH]c2=O)c2ccccc2c1=O the results were AID504770 0.1.
Screening CC(Nc1ccccc1)C(=O)Nc1ccc(F)cc1 (stereo not drawn) returned AID504770 0.25.
For CCOC(=O)CSc1nc2ccccc2n1C(=O)Nc1cccc(Cl)c1 the results were AID504770 -0.15 and Ba CapD inh -0.235.
`Cc1noc(/C=C/N(C)C)c1S(=O)(=O)N1CCc2ccccc21` gave AID504770 0 and Ba CapD inh -0.55.
Screening O=S(=O)(c1ccc(-c2cnco2)cc1)N(Cc1ccccn1)Cc1ccccn1 returned AID504770 0 and Ba CapD inh 0.835.
For CCN(Cc1ccccc1)C(=O)CS(=O)(=O)c1ccccc1 the results were AID504770 -0.7 and Ba CapD inh 0.65.
Cc1ccc(NC(=O)CCc2c(C)nc3c4c(C)cc(C)nc4nn3c2C)cc1 was read as AID504770 2.15 and Ba CapD inh -0.31.
`CCOc1cc(C2C(C(=O)OCc3ccc(OC)cc3)=C(C)NC3=C2C(=O)CCC3)cc(Br)c1O` (stereo not drawn) gave Ba CapD inh 0.75.
Cc1sc(NC(=O)/C=C/c2ccco2)c(C(N)=O)c1C was read as AID504770 -0.45 and Ba CapD inh -2.03.
Screening Cc1ccc(-n2c(=O)c3sccc3n(CC(=O)NCC3CCCO3)c2=O)cc1F (stereo not drawn) returned AID504770 0.5 and Ba CapD inh 0.185.
CN(C)Cc1nc2ccccc2c(=O)n1CC#N was read as AID504770 1.25.
Screening COc1ccc(/C=C/C(=O)CC(=O)c2ccccc2O)cc1 returned AID504770 0.2 and Ba CapD inh -0.57.
For O=C(COC(=O)c1cnc(Cl)c(Cl)c1)NC1CC1 the results were AID504770 -0.75 and Ba CapD inh 0.33.
`COc1ccccc1NC(=O)c1ccccc1C(=O)O` gave AID504770 -0.4.
COC(=O)c1ccccc1NC(=O)Cn1c(SC)c(F)cnc1=O was read as AID504770 0.05 and Ba CapD inh 1.1.
For O=C1C2=C(C(c3ccccc3)=NCCN2)C(c2ccc(F)cc2)N1c1ccccc1 (stereo not drawn) the results were Ba CapD inh -0.005.
`N#CC1=C(N)OC2=C(CC/C2=C/c2ccccc2)C1c1ccccc1` (stereo not drawn) gave AID504770 0.15 and Ba CapD inh 0.63.
